Screening results (PubChem)
KCNQ2 pot = KCNQ2 (rat) channel potentiation; 310,000 compounds, 0.54% hits; AID 2239; CHO-K1 KCNQ2, FluxOR thallium flux fluorescence; active compounds read high; O88943; B-score at 10 µM;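 active = fluorescence ratio B-score at least 3 SD of library B-scores, with initial fluorescence B-score within 3 SD, cut at about 5.3 in these data; same plate scores as AID 2156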;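 also: B-score of peak minus minimum over baseline fluorescence ratio after K+ and Tl+ stimulus; positive B-score means potentiation of KCNQ2 with more thallium influx and brighter signal; only the inactives scoring about 0 or higher are listed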
Target sequence (O88943 whole entry, looked up): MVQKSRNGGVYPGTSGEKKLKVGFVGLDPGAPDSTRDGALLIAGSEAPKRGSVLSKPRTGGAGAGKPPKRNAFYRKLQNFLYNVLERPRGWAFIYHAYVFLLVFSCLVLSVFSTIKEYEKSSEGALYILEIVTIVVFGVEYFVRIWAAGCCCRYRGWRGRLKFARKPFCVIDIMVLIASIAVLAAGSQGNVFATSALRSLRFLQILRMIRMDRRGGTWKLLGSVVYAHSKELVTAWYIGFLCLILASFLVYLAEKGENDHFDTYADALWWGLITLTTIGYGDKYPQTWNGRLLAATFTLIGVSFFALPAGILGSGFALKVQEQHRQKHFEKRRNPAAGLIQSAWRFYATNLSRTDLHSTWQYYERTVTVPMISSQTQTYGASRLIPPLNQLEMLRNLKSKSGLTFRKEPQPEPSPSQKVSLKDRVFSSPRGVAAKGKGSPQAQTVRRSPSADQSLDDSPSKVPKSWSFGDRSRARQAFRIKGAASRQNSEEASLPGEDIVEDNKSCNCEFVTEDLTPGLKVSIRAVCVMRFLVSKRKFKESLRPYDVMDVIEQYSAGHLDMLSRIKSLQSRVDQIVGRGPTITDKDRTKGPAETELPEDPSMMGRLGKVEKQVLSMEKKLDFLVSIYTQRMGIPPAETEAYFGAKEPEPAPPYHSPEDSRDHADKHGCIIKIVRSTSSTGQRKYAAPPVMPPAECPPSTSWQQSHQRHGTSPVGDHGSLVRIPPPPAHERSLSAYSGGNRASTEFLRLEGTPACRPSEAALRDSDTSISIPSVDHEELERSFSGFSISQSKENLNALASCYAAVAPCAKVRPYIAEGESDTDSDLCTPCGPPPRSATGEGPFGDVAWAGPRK
KCNQ2 pot baseline = recorded beside KCNQ2 pot, whose call it bears; B-score; compound at 10 µM; measured here: initial fluorescence intensity artifact check;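 brightness before thallium and not channel activity; 0 = typical well and far values either way flag optical interference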
Starred values were filed as active, the others as inactive. The list is partial. The share of hits here may be higher or lower than overall.

KCNQ2 pot | KCNQ2 pot baseline | compound
0.96 | 0.95 | CCOC(=O)C1CCN(C2=NC(=O)/C(=C/c3ccc(OC)c(OC)c3)S2)CC1
0.31 | 0.12 | Cc1ccc(S(=O)(=O)N2CCC(CN3C(=O)c4cccc5cccc(c45)C3=O)CC2)cc1
1.1 | -0.06 | COc1ccc(CC(=O)Nc2ccccc2C(=O)N2CCOCC2)cc1
1.4 | -0.93 | Cc1cccn2c(CN(C)CC3CCCCO3)c(C(=O)N3CCCCC3)nc12 (centres undefined)
0.46 | 0 | COc1ccc(CCn2c(=N)c(S(=O)(=O)c3ccc(C)cc3)cc3c(=O)n4ccccc4nc32)cc1
0.87 | -1.1 | CC(C)=C(NC(=O)c1ccccc1)C(=O)NCCCC(=O)O
1.3 | -1.8 | NC(=O)CC(NC(=O)Cc1ccc(Br)cc1)c1ccc(NC2CCC2)c([N+](=O)[O-])c1 (centres undefined)
0.69 | 0.77 | CC(=O)c1ccc(NC(=O)[C@@]2(CC(=O)O)CC(/C=C/c3ccccc3)=NO2)cc1
0.94 | -0.41 | COc1ccc(COCC(O)CN2CC(C)OC(C)C2)cc1OC (centres undefined)
0.45 | -0.02 | CC(C)(C)NC(=O)CN(C(=O)CCC(=O)Nc1nccs1)c1cccc(C(F)(F)F)c1
1.5 | -2.6 | Cc1ccc(C(=O)N/C(=C/c2ccco2)C(=O)NCC2CCCO2)cc1 (centres undefined)
0.86 | -1.7 | O=C(CC(C(=O)O)P(=O)(c1ccccc1)c1ccccc1)c1ccc(Br)cc1 (centres undefined)
0.74 | -0.1 | CCOC(=O)c1c(C)n(C)c2ccc(OC)c(NC(=O)CN3CCN(C4CCCCC4)CC3)c12
1.9 | -0.04 | C(=N\Nc1nc(-c2ccccc2)cs1)/c1ccncc1
2.3 | -0.94 | O=S(=O)([N-]c1nc2ccccc2nc1-n1cc[n+](Cc2ccccc2)c1)c1ccc(Cl)cc1
0.25 | 1.5 | O=C1C2C(C(=O)N1CCc1ccccc1)C1C=CC2C12CC2 (centres undefined)
2.4 | -0.02 | Cc1ccc(-c2[nH]c3ccccc3c2SCCN)cc1
0.68 | -0.55 | CCOC(=O)Cc1csc(NC(=O)c2cnc3scc(C)n3c2=O)n1
0.32 | -1.1 | Cc1ccc(OC(C)C(=O)Nc2ccncc2)cc1 (centres undefined)
0.17 | 1.2 | N#CC1=C(S)N(c2ccccc2)C(c2ccc(-c3cccc(Cl)c3)o2)NC1=O (centres undefined)
1.6 | -0.78 | Cn1nc(C(C)(C)C)c([N+](=O)[O-])c1C(=O)N1CCCCCC1
0.28 | 0.2 | CC(=O)c1c(N)nc2n(c1=O)CCCCC2
0.25 | 0.04 | Nc1c(C(=O)N/N=C/c2ccc([N+](=O)[O-])cc2)cnn1-c1ccccc1
0.75 | 1.1 | Cc1ccc2oc(C(=O)NCC(c3ccco3)N(C)C)c(C)c2c1 (centres undefined)
0.24 | -0.7 | CC1(C(=O)CSc2nc3ccccc3s2)CCC(=O)O1 (centres undefined)

A draw from above in order of molar mass, lowest first:
KCNQ2 pot | KCNQ2 pot baseline | compound
0.32 | -1.1 | Cc1ccc(OC(C)C(=O)Nc2ccncc2)cc1 (centres undefined)
0.25 | 1.5 | O=C1C2C(C(=O)N1CCc1ccccc1)C1C=CC2C12CC2 (centres undefined)
0.24 | -0.7 | CC1(C(=O)CSc2nc3ccccc3s2)CCC(=O)O1 (centres undefined)
1.6 | -0.78 | Cn1nc(C(C)(C)C)c([N+](=O)[O-])c1C(=O)N1CCCCCC1
0.94 | -0.41 | COc1ccc(COCC(O)CN2CC(C)OC(C)C2)cc1OC (centres undefined)
0.25 | 0.04 | Nc1c(C(=O)N/N=C/c2ccc([N+](=O)[O-])cc2)cnn1-c1ccccc1
1.5 | -2.6 | Cc1ccc(C(=O)N/C(=C/c2ccco2)C(=O)NCC2CCCO2)cc1 (centres undefined)
1.4 | -0.93 | Cc1cccn2c(CN(C)CC3CCCCO3)c(C(=O)N3CCCCC3)nc12 (centres undefined)
0.96 | 0.95 | CCOC(=O)C1CCN(C2=NC(=O)/C(=C/c3ccc(OC)c(OC)c3)S2)CC1
0.17 | 1.2 | N#CC1=C(S)N(c2ccccc2)C(c2ccc(-c3cccc(Cl)c3)o2)NC1=O (centres undefined)
0.31 | 0.12 | Cc1ccc(S(=O)(=O)N2CCC(CN3C(=O)c4cccc5cccc(c45)C3=O)CC2)cc1
0.45 | -0.02 | CC(C)(C)NC(=O)CN(C(=O)CCC(=O)Nc1nccs1)c1cccc(C(F)(F)F)c1
0.74 | -0.1 | CCOC(=O)c1c(C)n(C)c2ccc(OC)c(NC(=O)CN3CCN(C4CCCCC4)CC3)c12
1.3 | -1.8 | NC(=O)CC(NC(=O)Cc1ccc(Br)cc1)c1ccc(NC2CCC2)c([N+](=O)[O-])c1 (centres undefined)
0.46 | 0 | COc1ccc(CCn2c(=N)c(S(=O)(=O)c3ccc(C)cc3)cc3c(=O)n4ccccc4nc32)cc1

New compounds follow
KCNQ2 pot | KCNQ2 pot baseline | compound
1.4 | -2.9 | O=c1cc(N2CCc3ccccc3C2)[nH]c(=O)n1Cc1ccc(F)cc1
2.7 | -1.7 | Cc1nc2ccccc2n1CCc1nc2c3ccccc3nc(SCC#N)n2n1
0.9 | -0.55 | Cc1ccc(S(=O)(=O)N(C)C)cc1NC(=O)Cn1c(CN2CCOCC2)nc2ccccc2c1=O
0.51 | 0.47 | Cc1nc(Cl)cc(N/N=C/c2ccc(O)cc2O)n1
0.68 | 1.6 | Cc1ccccc1N1C(=O)C2C3CCC(O3)C2C1=O (centres undefined)
0.93 | -0.61 | COc1cc(C2CC(=O)c3c(ccc4ccccc34)N2)ccc1O (centres undefined)
